2A firefly – FMDV 2A StopGo reporter, firefly signal; HEK cells with a luciferase reporter of 2A StopGo recoding; Potency, µM (highest dose often 57.5 µM), for inactives: at the highest dose signal change, negative = less light; hit rate 0.23% among 120,000; AID 1745856; active = well fitted falling curve with a large enough effect; inconclusive = small, poorly fitted or top-dose-only effect; inactive = no such curve, though single readings can be large or run the other way; note: nearly all actives have a fitted effect of over 60% in size; overnight with compound
StopGo RLuc – FMDV 2A StopGo reporter, Renilla signal; HEK cells with a luciferase reporter of 2A StopGo recoding; Potency, µM (titrated, usually from 57.5 µM), for inactives: at the highest dose signal change, negative = less light; hit rate 0.32% among 120,000; AID 1745857; active means well fitted falling curve with a large enough effect; inconclusive means small, poorly fitted or top-dose-only effect; inactive means no such curve, though single readings can be large or run the other way; note: nearly all actives have a fitted effect of over 55% in size; overnight with compound
The depositor's hits bear a star; ? = inconclusive; & = joins results of further samples; [ ] = remark or other dose. % is set by controls: 0 for no effect and ±100 for the full control effect; potency is the fitted concentration of half-maximal effect.

SMILES	2A firefly	StopGo RLuc
C/C(=N/Nc1ccc(S(N)(=O)=O)cc1[N+](=O)[O-])c1cc(Cl)ccc1Cl	5.2%	-12.9%
CCCN1C(=O)CCc2cc(NC(=O)c3cccc(C)c3)ccc21	56.9%[activator]	?
CCCNC(=O)Cn1c(=O)cc(C)c2c(C)nn(-c3cccc(F)c3)c21	-12.8%	-13.1%
Nc1ccc(Cl)cc1	-8.0%[115 µM]	-1.5%[114 µM]
CCCc1c(C(=O)OCC)nnc2c(-c3ccc(F)cc3)c(C)nn12	0.7%	-2.6%
COC(=O)c1cc2sccc2n1Cc1ccc(F)cc1Cl	-4.3%	-3.8%
CC(C)CCNC(=O)Cc1cccs1	31.5%[activator]	12.3%
CN(C(=O)CSc1nc(-c2cccs2)cc(C(F)(F)F)n1)C1CCCCC1	0.0%	3.9%
O=C(NC(Cc1cccc(F)c1)c1cccc(F)c1)C1CCOCC1 (stereo not given)	3.9%	13.2%
CCOC(=O)c1cc(-c2ccc(C)cc2)n(CCC(=O)Nc2cc(Cl)ccc2C)c1C	12.4%	-2.9%
O=C(Cc1n[nH]c(=O)c2ccccc12)Nc1nc2c(s1)CCCC2	11.3%	2.2%
CCSc1ncc(Cl)c(C(=O)Nc2nc3ccc(OC)cc3s2)n1	17.0%&-5.6%	-8.7%&6.2%
CCN1C(C(=O)c2ccccc2)=C(NC(=O)c2ccc(Cl)cc2)c2ccccc2S1(=O)=O	12.6%	1.6%
CCOc1ccc(C(=O)Nc2ccc3oc(=O)ccc3c2)cc1OC	17.0%	-8.2%
COc1cccc(NC(=O)CSc2cc(=O)n(C)c3ccc(Cl)cc23)c1	-10.6%	2.1%
Cc1ccc(OCC(=O)Nc2nc(-c3ccc(Br)cc3)ns2)cc1C	-5.5%	-1.1%
CCCCOC(=O)c1ccc(NC2=NS(=O)(=O)c3ccccc32)cc1	-4.6%	0.5%
COc1ccc(-c2c3c(=O)n(C)c(=O)n(C)c3c3n2-c2ccccc2NC3c2ccc(OC)cc2)cc1 (stereo not given)	13.5%&80.9%	-1.1%&7.4%
CCCCNC(=O)NS(=O)(=O)c1ccc(N)cc1	-12.5%	14.9%
CCOC(=O)c1c(C)[nH]c(C(=O)Cn2nnc(-c3ccc(Cl)cc3)n2)c1C	-0.1%	79.6%[activator]
O=C(Cn1cc(C(=O)c2ccco2)c2ccccc21)Nc1ccccc1C(F)(F)F	19.9%	-18.6%
CCCOC(=O)C1=C(C)NC2=C(C(=O)CCC2)C1c1cccc(O)c1 (stereo not given)	-7.5%	-7.7%
CC(C)[N+](C)(C)CC#CC(O)(c1ccccc1)c1ccccc1	?	-10.3%
CCCN(Cc1nnc(-c2ccccc2Cl)o1)C(=O)c1cc(S(=O)(=O)N(C)C)ccc1Cl	-10.5%	6.0%
S=C(NCc1ccccc1)Nc1ccccc1Br	214.6%[activator]	241.2%[activator]
FC(F)(F)c1ccc(C2=Nc3ccccc3NC(c3cccs3)=N2)cc1	0.0%	-3.7%
O=C1CCCC2=C1C(c1ccc(Cl)c(Cl)c1)c1c([nH]n(-c3ccccc3)c1=O)N2 (stereo not given)	21.8%	262.4%[activator]
CCC1CCc2c(sc(NC(=O)COCC(=O)O)c2C(=O)NCc2ccccc2)C1 (stereo not given)	30.6%[activator]	37.9%[activator]
COc1ccc(NCc2cc3ccc(OC)cc3n(CC(=O)Nc3ccc(C)c(C)c3)c2=O)cc1	0.8%	-6.1%
Cc1cc2oc(C(=O)Nc3ccc(S(=O)(=O)Nc4ncccn4)cc3)cc(=O)c2cc1C	59.7%[activator]	32.3%
CCN(CC)CCCNC(=O)c1cc(-c2ccc(OC)c(OC)c2)on1	5.8%	0.0%
O=C(c1cccn1-c1nnc(N2CCCCC2)s1)N1CCN(c2ccc(Cl)cc2)CC1	-5.0%	-9.4%
CC(OC(=O)c1nn(C(C)C)c(=O)c2ccccc12)C(=O)Nc1ncc(Cl)cc1Cl (stereo not given)	3.8%	-3.4%
CC(C(=O)O)c1ccc(CC2CCCC2=O)cc1 (stereo not given)	-16.5%	-8.9%
CC(=O)NC(C)c1ccc(C(=O)CSc2nnc(C3CC3)n2Cc2ccccc2)cc1 (stereo not given)	29.7%	-18.2%
O=C(COc1ccc(Cl)cc1)Nc1sc2c(c1C(=O)Nc1cccc(Cl)c1)CCCC2	-21.1%	-2.0%

An excerpt of these results, as a markdown table:
| compound | 2A firefly | StopGo RLuc |
| --- | --- | --- |
| Cc1ccc(OCC(=O)Nc2nc(-c3ccc(Br)cc3)ns2)cc1C | -5.5% | -1.1% |
| CCCCOC(=O)c1ccc(NC2=NS(=O)(=O)c3ccccc32)cc1 | -4.6% | 0.5% |
| COc1ccc(-c2c3c(=O)n(C)c(=O)n(C)c3c3n2-c2ccccc2NC3c2ccc(OC)cc2)cc1 (stereo not given) | 13.5%&80.9% | -1.1%&7.4% |
| CCCCNC(=O)NS(=O)(=O)c1ccc(N)cc1 | -12.5% | 14.9% |
| CCOC(=O)c1c(C)[nH]c(C(=O)Cn2nnc(-c3ccc(Cl)cc3)n2)c1C | -0.1% | 79.6%[activator] |
| O=C(Cn1cc(C(=O)c2ccco2)c2ccccc21)Nc1ccccc1C(F)(F)F | 19.9% | -18.6% |
| CCCOC(=O)C1=C(C)NC2=C(C(=O)CCC2)C1c1cccc(O)c1 (stereo not given) | -7.5% | -7.7% |
| CC(C)[N+](C)(C)CC#CC(O)(c1ccccc1)c1ccccc1 | ? | -10.3% |
| CCCN(Cc1nnc(-c2ccccc2Cl)o1)C(=O)c1cc(S(=O)(=O)N(C)C)ccc1Cl | -10.5% | 6.0% |
| S=C(NCc1ccccc1)Nc1ccccc1Br | 214.6%[activator] | 241.2%[activator] |
| FC(F)(F)c1ccc(C2=Nc3ccccc3NC(c3cccs3)=N2)cc1 | 0.0% | -3.7% |
| O=C1CCCC2=C1C(c1ccc(Cl)c(Cl)c1)c1c([nH]n(-c3ccccc3)c1=O)N2 (stereo not given) | 21.8% | 262.4%[activator] |
| CCC1CCc2c(sc(NC(=O)COCC(=O)O)c2C(=O)NCc2ccccc2)C1 (stereo not given) | 30.6%[activator] | 37.9%[activator] |
| COc1ccc(NCc2cc3ccc(OC)cc3n(CC(=O)Nc3ccc(C)c(C)c3)c2=O)cc1 | 0.8% | -6.1% |
| Cc1cc2oc(C(=O)Nc3ccc(S(=O)(=O)Nc4ncccn4)cc3)cc(=O)c2cc1C | 59.7%[activator] | 32.3% |
| CCN(CC)CCCNC(=O)c1cc(-c2ccc(OC)c(OC)c2)on1 | 5.8% | 0.0% |
| O=C(c1cccn1-c1nnc(N2CCCCC2)s1)N1CCN(c2ccc(Cl)cc2)CC1 | -5.0% | -9.4% |
| CC(OC(=O)c1nn(C(C)C)c(=O)c2ccccc12)C(=O)Nc1ncc(Cl)cc1Cl (stereo not given) | 3.8% | -3.4% |
| CC(C(=O)O)c1ccc(CC2CCCC2=O)cc1 (stereo not given) | -16.5% | -8.9% |
| CC(=O)NC(C)c1ccc(C(=O)CSc2nnc(C3CC3)n2Cc2ccccc2)cc1 (stereo not given) | 29.7% | -18.2% |
| O=C(COc1ccc(Cl)cc1)Nc1sc2c(c1C(=O)Nc1cccc(Cl)c1)CCCC2 | -21.1% | -2.0% |

Next compounds.
SMILES	2A firefly	StopGo RLuc
CC1(C)CC(=O)C2=C(C1)NC(=O)CC2c1ccsc1 (stereo not given)	9.3%	-2.5%
CCNC(=O)CSc1cc(C)c2cc(C)cc(C)c2n1	9.4%	1.7%
CCc1nnc(SCc2ccc(F)cc2Cl)c2cc3sccc3n12	-6.7%	-15.5%
Cc1ccccc1NC(=O)c1ccc2nc(Cc3ccccc3)oc2c1	-10.9%	-16.4%
CN1CCC(=O)C2CCCCC21 (stereo not given)	72.8%[activator]	46.3%[activator]
CCOC(=O)Cc1csc(SCC(=O)NC2CCCC2)n1	1.7%	0.1%
N#Cc1ccc(NC(=O)N2CCN(c3ncccc3Cl)CC2)cc1	?	?
Nc1c(C(=O)Nc2cccc(F)c2)c2ccccn2c1C(=O)c1ccccc1	-6.0%	-8.0%
CCCS(=O)(=O)NCCc1csc2nc(-c3ccc(C)cc3)nn12	?	11.3%
COc1cccc(N2CCN(c3ncnc4c3c(-c3ccccc3)cn4-c3cccc(C(F)(F)F)c3)CC2)c1	-21.5%	-14.4%
Cc1cc(-c2ccc(S(=O)(=O)Nc3cccc(C)c3C)s2)on1	?	-1.7%
O=C(CSc1nc2ccsc2c(=O)n1Cc1ccccc1Cl)NCc1ccc(F)cc1	-9.5%	0.0%
O=C(OCc1cc(=O)n2nc(-c3cccs3)sc2n1)c1ccccc1Cl	24.6%	4.1%
CSc1cccc(NC(=O)Cn2nnc(C(=O)NCCc3ccccc3)c2N)c1	-15.6%	-6.6%
O=C(NCc1ccc(Cl)cc1)c1nc(Cc2c[nH]c3ccccc23)no1	-9.5%	-11.2%
CCC(C(=O)Nc1ccccc1)n1cnc2c1c(=O)n(C)c(=O)n2C (stereo not given)	26.4%	11.1%
Cc1cc(C)c2nc(-c3ccccc3)c(C)c(C(=O)O)c2c1	21.7%	12.2%
CCOc1ccc(N2C(=O)c3n[nH]c(-c4ccco4)c3C2c2cccnc2)cc1 (stereo not given)	0.0%	3.0%
CC(=O)c1ccc(N2CCN(C(=O)CCS(=O)(=O)c3ccc4c(c3)oc(=O)n4C)CC2)cc1	-2.9%	4.1%
Cc1cccc(-c2nc3c4c(-c5ccccc5)c(-c5ccccc5)oc4ncn3n2)c1	-17.1%	-16.3%
CCOc1ccc(NC(=O)Cn2c(=O)n(-c3ccc(C)cc3)c(=O)c3cc(OC)c(OC)cc32)cc1	-13.7%	-12.7%
CCCNCc1ccccc1C(F)(F)F	9.5%	-5.1%
CCc1ccc(NC(=O)Cn2c(=O)n(-c3cc(C)cc(C)c3)c(=O)c3oc4ccccc4c32)cc1	-6.7%	-5.5%
COc1ccc(OCCn2c(NC(=O)c3cccs3)nc3ccccc32)cc1	17.8%	-0.7%
CCN(CC)C(=S)SCC(=O)NC(=O)NC	-1.7%	-15.2%
O=C(Nc1ccnn1Cc1cccs1)c1cccc(S(=O)(=O)N2CCCC2)c1	6.1%	?
Cc1csc(NC(=O)CCc2nc(-c3ccsc3)no2)n1	18.4%	-6.2%
CCN1CCN(c2nc3c(c(=O)n(C)c(=O)n3C)n2CC(N)=O)CC1	-3.0%	-12.6%
COc1ccc(CCNC(=O)c2nc(-c3ccc(Cl)cc3)n3c2CCCCC3)c(OC)c1	12.0%	20.8%
CCOc1ccc(NC(=O)N2CCC(CN3CCC(C)CC3)CC2)cc1	17.1%	15.2%
Cc1noc(C)c1S(=O)(=O)Nc1ccc(C(=O)Nc2ccc(C(C)C)cc2)cc1	8.0%	37.9%[activator]
CCN1CCC(N(Cc2ccc3c(c2)OCO3)C(=O)Nc2cc(F)ccc2F)CC1	1.9%	-9.9%
COc1cc(OC)c(NC(=O)c2cnc(NCc3ccc4c(c3)OCO4)nc2C)cc1Cl	15.1%	28.1%
COC(=O)c1cc(OC(=O)c2cc(OC)cc(OC)c2)cc(C(=O)OC)c1	-2.1%	12.2%
COCCn1c(-c2ccc(OCc3ccc(F)cc3)c(OC)c2)nc2c1c(=O)[nH]c(=O)n2CC(C)C	0.0%	1.1%
CCOc1cc(C=O)ccc1OCc1ccc(C(=O)O)cc1	8.5%	-1.3%
O=C(CN(CC1CCOC1)C1CC1)NCc1cccs1 (stereo not given)	-12.5%	22.9%
CC(=O)N1CCCc2cc(S(=O)(=O)N3CCCC(C(=O)Nc4ccc(F)cc4F)C3)ccc21 (stereo not given)	?	?
NC(N)=NCCN1CCN(Cc2ccccc2)CC1	-9.8%	-11.5%[1.06 µM]
CCCCCCc1ccc(OC(=O)c2cncc(Br)c2)cc1	12.0%	7.8%
Cn1cccc1C(=O)NCCc1c[nH]c2ccccc12	166.6%[activator]	-8.0%
O=C(Cc1n[nH]c(=O)c2ccccc12)NCC(=O)N1CCN(c2ccccc2)CC1	15.4%	14.2%
Cc1ccc(C(=O)Nc2cccnc2Oc2ccccc2)cc1F	17.5%	2.3%
COc1ccccc1C(=O)Nc1ccc2nc(SCC(=O)N3CCCC3)sc2c1	-17.4%	-7.0%
CCCNC(=O)CNC(=O)c1nn(Cc2ccccc2)c(=O)c2ccccc12	1.9%	8.8%
Cc1ccc(-c2cc(C(=O)NCc3ccccn3)c3ccccc3n2)cc1	0.0%	0.0%
O=C(C1CC1)N(Cc1ccc2c(c1)CN(S(=O)(=O)c1ccccc1F)CCO2)c1ccccc1	?	-25.3%
Cc1ccc2cc(C(=O)NCc3ccc(N4CCC(C)CC4)nc3)c(C)nc2c1	?	1µM*
C=CCNc1oc(COc2ccc(C)cc2)nc1C#N	108.5%[activator]	5.8%
CCCCN1C(=O)CN(C2CCCCCC2)C(=O)C1c1ccc(OCC)c(OC)c1 (stereo not given)	-13.1%	7.1%
Cc1csc(NC(=O)CNC(=O)c2ccoc2)n1	27.8%	-4.5%
CCCCc1ccc(C#Cc2ccc(OCC)cc2)cc1	12.9%	-4.7%

Screening data from PubChem BioAssay.

These rows are one share of the data; count on the stated rates, not on these rows.
